Screens as filed in PubChem.
MgcRacGAP Rac1: inhibition of MgcRacGAP-stimulated Rac1 GTP hydrolysis – biochemical, inorganic phosphate detection, orthogonal assay, confirmation (AID 652142); MgcRacGAP/Rac1F28L GTP hydrolysis, Biomol green phosphate; active compounds read high; test concentration not given here; none was called active though about 1 in 100 pass the limit; 2,400 tested, under 10 active; inhibition, %;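 active = inhibition over three standard deviations or about 65%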;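 note: full inhibition control lacks the GAP enzyme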
Numbers without * were called inactive. Some of the compounds tested; the hit share may differ from the screen's.

SMILES	MgcRacGAP Rac1
CCC(C)n1c(=S)[nH]c2c(sc3ccc([N+](=O)[O-])cc32)c1=O (centres undefined)	28
CCOCCCNCC(=O)NCC1CCCCC1	22
CC1CN(CCCCOc2ccc(Cl)c3ccccc23)CC(C)O1 (centres undefined)	5
O=C(CN1CCN(Cc2ccccc2)CC1)Nc1ccc(F)c(F)c1	25
Nc1ccc(N2CCN(C(=O)c3cccs3)CC2)cc1	13
COc1ccc(-c2cc3ccccc3n2CC(O)CN2CCCCC2)cc1 (centres undefined)	26
O=C(NN=Cc1ccc(O)cc1O)c1ccccc1NS(=O)(=O)c1cccs1	23
Cc1cc(/C=C2\SC(=S)NC2=O)c(C)[nH]1	28
O=C(c1ccc(Cl)c(S(=O)(=O)N2CCCCCC2)c1)N1CCN(c2ccc(O)cc2)CC1	32
CCOC(=O)C(Cc1ccccc1)C(=O)Nc1ccc(N(CC)CC)cc1 (centres undefined)	26
Oc1ccc(/C=N/NC(=S)N2CCOCC2)cc1	23
O=C1C=CC2(C=C1)O[C@H](Cc1ccccc1)[C@@H](Cc1ccccc1)O2	54
COc1ccc(N)cc1NC(=O)CN1CCOCC1	42
Cc1ccc(CN2CCN(C(=O)CC(C)C)CC2)cc1	18
O=C(CN1C(=O)c2ccccc2S1(=O)=O)c1ccc(O)c(O)c1	27
CCCc1nc2ccccc2c(=O)n1/N=C/c1ccc(O)c(O)c1	27
O=c1c2c(nc3cc(-c4ccccc4)[nH]n13)CCS2	17
Nc1c(Cl)ncnc1NCCc1ccc(O)cc1	10
C/C(CC(=O)Nc1ccc(N(C)C)cc1)=N\NC(=O)c1ccc([N+](=O)[O-])cc1	45
CCOC(=O)C(NC(=O)N(C)C)(Nc1sc(C)c(CC)c1C#N)C(F)(F)F (centres undefined)	18
C/C=C/C=C/C(=O)[C@@H]1[C@@H]([C@]2(C)OC(=O)C(C)=C2O)[C@H]2/C(=C(O)/C=C/C=C/C)C(=O)[C@]1(C)C(=O)C2(C)O (some centres undefined)	56
Cc1cc(NS(=O)(=O)c2ccc(Nc3nc(-c4ccc(O)cc4)cs3)cc2)no1	24
CCN(CCNCC(O)COc1ccccc1C(C)C)c1cccc(C)c1 (centres undefined)	11
Nc1ccc(OCCc2ccccc2)cc1	17
CN(C)c1ncnc2c1NC1=C(S2)C(=NCCCC(=O)O)CC(C)(C)C1	33
COc1cc(/C=C2\SC(c3ccc(C)cc3)=NC2=O)cc(OC)c1O	2
O=C(N/N=C/c1ccc(O)c(O)c1)C1c2ccccc2Oc2ccccc21	15
CCOC(=O)C1=C(C)Nc2ccccc2S1	35
Cc1cc(Oc2ccc(-c3ccccc3)cc2)n2ncnc2n1	10
COc1ccc(NC2CCCN(C(=O)c3cc(C)nc4cc(F)ccc34)C2)cc1 (centres undefined)	25
CCOc1cc(/C=N/NC(=O)C(OC)c2ccccc2)ccc1O (centres undefined)	17
O=C(N/N=C/c1ccc(N2CCOCC2)s1)c1ccc(O)cc1	24
CN1CCN(C(=O)c2sc(=S)n(-c3ccccc3)c2N)CC1	47
O=C(COc1ccccc1[N+](=O)[O-])N/N=C/c1ccc(O)cc1	25
O=C(CCC(=O)Nc1ccc(F)cc1)N/N=C/c1ccc(O)cc1	9
CCOC(=O)c1c(N)sc2c(OC)c(Br)ccc12	25
Cc1ccc(N2CC(C(=O)Nc3ccc(N(C)C)cc3)CC2=O)cc1C (centres undefined)	19
O=C(c1cccc(Cl)c1)N1CCN(Cc2ccncc2)CC1	9
Cc1nc2ccccc2nc1N/N=C/c1ccc(O)cc1	14
COc1cc(/C=N/N2CCN(c3ccccc3OC)CC2)ccc1O	24
CCN(CC)S(=O)(=O)c1ccc(N/N=C/c2ccc(O)cc2)nc1	22
COc1cc(C(C)n2nnc3ccccc32)ccc1O (centres undefined)	37
CCOc1cc(/C=C2\N=C(SC(C)C(N)=O)N(c3ccc(OC(F)F)cc3)C2=O)ccc1O (centres undefined)	30
COc1cc(/C=N/n2cnnc2)ccc1OC(=O)c1ccncc1	20
CN(C)C=NC1=NN(c2cccc(C(F)(F)F)c2)CC1	24
COc1cc(/C=C2\SC(N)=NC2=O)ccc1O	14
COc1cc(C(=O)N/N=C/c2ccc(OC)c(CN3CCN(c4ccc(F)cc4)CC3)c2)ccc1O	20
O=C1c2ccccc2NC(c2ccc(O)cc2)N1/N=C/c1ccc(O)cc1 (centres undefined)	27
CC1(C)CC(=O)C(C(C2=C(O)CC(C)(C)CC2=O)c2ccc(Br)s2)C(=O)C1 (centres undefined)	44
CCOCCCn1c(=O)c2ccccc2n2c(=S)[nH]nc12	18
COc1ccc(OC(=O)COc2cccc(C)c2)cc1	14
COc1ccc(CN(C)CC(=O)Nc2ccc(Cl)cc2C(F)(F)F)c(OC)c1	15
Nc1ccc(N2CCN(c3ccccc3)CC2)c(F)c1	30
Cc1nnc(N=c2ssnc2Cl)o1	15
Cc1cc(-c2n[nH]c(=S)n2/N=C/c2ccc(Br)s2)n[nH]1	32
CCc1ccc(/C(C)=N/NC(=O)CNC(=O)/C=C/c2ccco2)cc1	51
COc1ccc2cc(CNCCOCCOCCNCc3ccc4cc(OC)ccc4c3)ccc2c1	42
CC(C)(c1ccccc1)c1ccc(OCC(O)CNC2CCN(Cc3ccccc3)CC2)cc1 (centres undefined)	22
CC(=O)Nc1cccc(-c2csc(Nc3ccccn3)n2)c1	22
O=C(NC1CCN(C(=O)N2c3ccccc3Sc3ccccc32)CC1)c1ccccc1F	19

Look-ups from the entries so far.
CC1(C)CC(=O)C(C(C2=C(O)CC(C)(C)CC2=O)c2ccc(Br)s2)C(=O)C1 (centres undefined) – MgcRacGAP Rac1: 44
O=C(NC1CCN(C(=O)N2c3ccccc3Sc3ccccc32)CC1)c1ccccc1F – MgcRacGAP Rac1: 19

Next section:
SMILES	MgcRacGAP Rac1
O=C1NC(=NCc2ccccc2)S/C1=C/c1ccc(O)cc1	23
COc1ccc(/C=N/NC(=O)CN2CCCCCCC2)c(C)c1C	28
CCC(=Nc1ccc(N)cc1)C1=C(O)C(C(=O)OC)C(C)(C)CC1=O (centres undefined)	25
CCc1cc(/C(Cc2ccccn2)=N\O)c(O)cc1O	24
O=C(CN1CCOCC1)Nc1ccc2c(c1)OCCO2	16
CCc1ccc(OCCOCCN2CCN(C)CC2)cc1	17
S=c1[nH]nc(-c2ccco2)n1/N=C/c1cccc(Cl)c1Cl	7
CN(C)c1ccc(/C=C/c2ccc3ccccc3[n+]2C)cc1	41
CN(C)/C=C1\NC(=S)N(c2ccccc2)C1=O	20
O=C1/C(=C\c2ccc(Cl)c(Cl)c2)CN(C(=O)CCN2CCOCC2)C/C1=C/c1ccc(Cl)c(Cl)c1	29
O=C(/C=C/c1ccc(O)c(O)c1)c1ccc(S(=O)(=O)N2CCCCCC2)cc1	4
CCOC(=O)c1[nH]c2ccccc2c1NC(=S)Nc1cccc(C)c1	36
COc1ccc(NC2CCCN(C(=O)c3ccc(C)c(N4CCNC4=O)c3)C2)cc1 (centres undefined)	33
C=CCc1cccc(Cl)c1OCCCNC1CCCC1	25
CCc1ccc(O)c(N=Cc2ccccc2O)c1	34
COc1ccc(NC2CCCN(C(=O)c3csc(C)n3)C2)cc1 (centres undefined)	15
COc1cc(OC)c(OC)cc1CN1CCN(Cc2ccc(SC)cc2)CC1	12
COc1ccc(/C=N/n2c(-c3n[nH]c4c3CCC4)n[nH]c2=S)c(OC)c1OC	26
COc1cc(/C=N/NC(=O)c2nonc2C)ccc1O	29
Cc1cccc(CN2CCN(C(C)C(=O)NC(C)c3ccccc3)CC2)c1 (centres undefined)	21
COc1ccccc1N1CCN(/N=C/c2cc(OC)c(O)c(OC)c2)CC1	21
COc1cc(C(C[N+](=O)[O-])c2c(N)n(C)c(=O)n(C)c2=O)ccc1O (centres undefined)	33
COc1ccc(N2CCN(C(=O)c3ccccc3N(C)S(=O)(=O)c3ccccc3)CC2)cc1	12
O=[N+]([O-])c1cc([N+](=O)[O-])c2nonc2c1Nc1ccc(O)cc1	24
CCOC(=O)N/N=C/c1ccc(N2CCOCC2)s1	22
C[n+]1c(-c2ccccc2)cc2c(=Cc3ccc([N+](=O)[O-])cc3)c3ccccc3n21	47
CCOc1cc(-c2cc(-c3ccc(N)cc3)nc(N)c2C#N)ccc1O	2
CCOc1cc(NC(=O)c2ccccc2C(=O)O)c(OCC)cc1NC(=O)c1ccccc1F	14
CCN(CC)c1ccc(NS(=O)(=O)c2ccc(-c3ccc(=O)[nH]n3)o2)c(C)c1	36
COc1ccc(CN2CCN(Cc3ccc(Br)cc3)CC2)c(OC)c1OC	13
N/N=C(\Cc1cscn1)c1ccc(O)cc1O	33
CCOC(=O)c1c(N)sc2c(O)c(Br)ccc12	21
CC(C(=O)N1CCCc2ccccc21)N1CCN(c2ccccn2)CC1 (centres undefined)	18
CC1(C)O[C@@H]2[C@H](O1)[C@@H](COS(=O)(=O)O)O[C@H]2n1c(=S)[nH]c2c(=O)[nH]c(N)nc21	28
S=c1[nH]nc2sc3ccccc3n12	13
O=c1[nH]c2ccccc2nc1/C=C/c1ccc(O)cc1	16
COc1cc(/C=N/NC(=O)c2ccc(=O)[nH]n2)ccc1O	18
C=CCOc1ccc(C=NNc2ccc(S(=O)(=O)Nc3ccccc3C(=O)O)cc2[N+](=O)[O-])cc1OC	-4
CCN(CC)CC(C)(C)C(=O)/C=C/c1ccc(/C=C/C(=O)C(C)(C)CN(CC)CC)cc1	36
CCOC1=C/C(=C/c2c(N)n3nc(S(=O)(=O)CC)sc3nc2=O)C=CC1=O	25
c1cc(CNc2ccc3c(c2)OCCO3)ccn1	18
Cc1ccc(NC(=O)C2=C(c3ccccc3)S(=O)(=O)CCS2(=O)=O)cc1	44
O=[N+]([O-])c1cnc(Sc2ccncn2)c([N+](=O)[O-])c1	25
C(=N\Nc1ccccn1)/c1ccc(N2CCOCC2)cc1	20
COCc1cc(S(=O)c2ccc(Cl)cc2)nc(C)n1 (centres undefined)	57
COc1cc(/C=C/C(=O)OCC(=O)N(CC(C)C)c2c(N)n(Cc3ccccc3)c(=O)[nH]c2=O)ccc1O	24
CC(=O)Nc1ccc(Nc2ccccc2)cc1	22
O=C(O)CCCn1c(=S)[nH]c2c(sc3ccc([N+](=O)[O-])cc32)c1=O	29

Part of the list above in order of molar mass, high to low:
SMILES	MgcRacGAP Rac1
C=CCOc1ccc(C=NNc2ccc(S(=O)(=O)Nc3ccccc3C(=O)O)cc2[N+](=O)[O-])cc1OC	-4
COc1cc(/C=C/C(=O)OCC(=O)N(CC(C)C)c2c(N)n(Cc3ccccc3)c(=O)[nH]c2=O)ccc1O	24
CCN(CC)CC(C)(C)C(=O)/C=C/c1ccc(/C=C/C(=O)C(C)(C)CN(CC)CC)cc1	36
COc1ccc(CN2CCN(Cc3ccc(Br)cc3)CC2)c(OC)c1OC	13
CCOC1=C/C(=C/c2c(N)n3nc(S(=O)(=O)CC)sc3nc2=O)C=CC1=O	25
CCN(CC)c1ccc(NS(=O)(=O)c2ccc(-c3ccc(=O)[nH]n3)o2)c(C)c1	36
Cc1ccc(NC(=O)C2=C(c3ccccc3)S(=O)(=O)CCS2(=O)=O)cc1	44
O=C(O)CCCn1c(=S)[nH]c2c(sc3ccc([N+](=O)[O-])cc32)c1=O	29
CC(C(=O)N1CCCc2ccccc21)N1CCN(c2ccccn2)CC1 (centres undefined)	18
CCOC(=O)c1c(N)sc2c(O)c(Br)ccc12	21
COCc1cc(S(=O)c2ccc(Cl)cc2)nc(C)n1 (centres undefined)	57
COc1cc(/C=N/NC(=O)c2ccc(=O)[nH]n2)ccc1O	18
C(=N\Nc1ccccn1)/c1ccc(N2CCOCC2)cc1	20
O=[N+]([O-])c1cnc(Sc2ccncn2)c([N+](=O)[O-])c1	25
O=c1[nH]c2ccccc2nc1/C=C/c1ccc(O)cc1	16
N/N=C(\Cc1cscn1)c1ccc(O)cc1O	33
c1cc(CNc2ccc3c(c2)OCCO3)ccn1	18
CC(=O)Nc1ccc(Nc2ccccc2)cc1	22
S=c1[nH]nc2sc3ccccc3n12	13

Further entries:
SMILES	MgcRacGAP Rac1
N/C(=N\N=C\c1ccc(O)cc1)c1nonc1N	26
N=C(N)c1ccc(N=Nc2c(O)ccc3c2[nH]c2ccccc23)cc1	62
CN(CCOc1ccc(Cl)c(Cl)c1)Cc1ccccc1	17
Cc1cc(SCC(=O)c2ccc(O)c(O)c2)nc2ccccc12	6
C/C(=N\Nc1ccc([N+](=O)[O-])cc1)c1ccc(N)cc1	23
CCc1cc(/C(Cc2cscn2)=N\O)c(O)cc1O	29
Cc1c(NC(=S)N/N=C/c2ccc(O)cc2)c(=O)n(-c2ccccc2)n1C	14
Cc1c(-c2ccccc2)sc(N)c1C(=O)N1CCOCC1	29
COc1cc(/C=C/C(=O)OCC(=O)Nc2c(C)n(C)n(-c3ccccc3)c2=O)ccc1O	27
COc1ccc(N2CCN(CC(O)COC(c3ccc(F)cc3)c3ccc(F)cc3)CC2)cc1 (centres undefined)	12
COc1ccc(NCc2cccnc2)cc1	23
Cc1ccc(S(=O)(=O)N2CCN(C(=O)CN3CCN(c4ccc(O)cc4)CC3)CC2)cc1	24
CSc1ccc(CN2CCC(C(=O)NCc3ccc(C)cc3)CC2)cc1	2
Cc1ccc(S(=O)(=O)N[C@H](C(=O)OCn2nnc3ccccc3c2=O)C(C)C)cc1	10
COc1ccc(NC(=O)n2ncc3c(C)cccc32)cc1OC	14
O=C(O)CC1SC(=Nc2ccc(O)cc2)NC1=O (centres undefined)	12
O=c1c(-c2ccc(O)cc2)coc2cc(O)ccc12	13
COc1ccc2cc(OCC(=O)NNC(=O)Nc3ccc(F)cc3)ccc2c1	15
O=C1c2ccccc2C(=O)N1/N=C/c1ccc(O)c(O)c1	29
COc1ccc(OC(=O)COc2cc(C)ccc2C)cc1	22
COc1cc(CN2CCC(C(=O)NC3CCCC3)CC2)ccc1O	4
CCOC(=O)c1[nH]c2ccc(F)cc2c1NC(=O)c1ccccc1C(=O)O	23
COc1ccc(/C=N/n2c(-c3n[nH]c4c3CCC4)n[nH]c2=S)cc1OC	22
COc1ccc(C(=O)N2CCN(CCCc3ccccc3)CC2)cc1OC	35
Cc1nc(Nc2ccc(O)cc2)c2c3c(sc2n1)CCCC3	8
COc1ccc(N2CCCC2)c(NC(=O)c2ccc([N+](=O)[O-])o2)c1	28
O=C(Nc1ccc(O)cc1)c1ccc(C(=O)c2ccccc2)o1	-3
COc1cc(/C=C2\SC(=S)N(NC(=O)c3ccc(O)cc3)C2=O)ccc1O	17
C=CCSC1=N/C(=C\C=C\c2ccco2)C(=O)S1	23
c1ccc(CNC23CC4CC(CC(C4)C2)C3)nc1	11
